CDC25B CDK2 inh: human CDC25B-CDK2/CyclinA binding inhibition | P30305+P24941 | actives 0.72% (n = 94,000) | AID 1259370 | HTRF CDC25B-CDK2/CyclinA binding, anti-His/anti-Flag; active compounds read high | z-score (no concentration beside the values);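 also: score is relative to mean and SD of negative controls; strong numbers were not always called active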
TAR Tat displ: HIV-1 TAR-Tat binding disruption; HIV-1 TAR RNA, Tat peptide displacement FRET; active compounds read high; z-score (no concentration beside the values); actives 0.6% (n = 100,000); AID 1259389;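 also: score is relative to mean and SD of negative controls; some compounds called inactive have numbers as strong as hits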
Active calls of the source: *; · = not tested or not shown.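 The calls were made as follows: active = z-score from 3 up in half or more of its runs; inactive = the rest.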

A first look:
SMILES	CDC25B CDK2 inh	TAR Tat displ
COc1ccc(-c2noc(C(C)Oc3ccc(Cl)c(C)c3)n2)cc1OC (stereo not drawn)	-0.71	1.8
Cc1nc2ncnn2c(Sc2ccc(N)cc2)c1C	3.58	1.22
COc1ccc(-c2nnc3ccc(SCc4ccc(F)cc4)nn23)cc1OC	-9.74	·
COc1ccc(-c2nnc3c4cnn(-c5ccc(C)cc5)c4ncn23)cc1	0.72	-1.26
COC(=O)CSc1nnc(-c2ccncc2)o1	-1.07	2.58
Cc1nc(SCC(=O)Nc2ccc3c(c2)OCCO3)c2c(=O)n(C)c(=O)n(C)c2n1	0.3	·

Results, repeating the preview:
SMILES	CDC25B CDK2 inh	TAR Tat displ
COc1ccc(-c2noc(C(C)Oc3ccc(Cl)c(C)c3)n2)cc1OC (stereo not drawn)	-0.71	1.8
Cc1nc2ncnn2c(Sc2ccc(N)cc2)c1C	3.58	1.22
COc1ccc(-c2nnc3ccc(SCc4ccc(F)cc4)nn23)cc1OC	-9.74	·
COc1ccc(-c2nnc3c4cnn(-c5ccc(C)cc5)c4ncn23)cc1	0.72	-1.26
COC(=O)CSc1nnc(-c2ccncc2)o1	-1.07	2.58
Cc1nc(SCC(=O)Nc2ccc3c(c2)OCCO3)c2c(=O)n(C)c(=O)n(C)c2n1	0.3	·
CCCCCCOc1ccccc1C(N)=O	·	0.98
O=C(O)c1[nH]c2ccc(Cl)cc2c1CC(=O)N1CCCC1	0.51	·
Cc1noc(C)c1CCNC(=O)C1=Cc2ccccc2OC1	·	1.38
COc1ccc2c(c1)CCc1c-2n[nH]c1C(=O)Nc1ccc2c(c1)OCO2	·	-0.03
COC(=O)CNC(=O)NC12CC3CC(CC(C3)C1)C2	-0.67	·
Cc1c(Br)c([N+](=O)[O-])nn1CC(=O)Nc1sc2c(c1C(=O)OC(C)C)CCCC2	·	-0.46
Cc1noc(C)c1S(=O)(=O)N1CCC(CC(=O)N2CCC(N3CCCCC3)CC2)CC1	·	-1.37
Cn1ccc2cc(S(=O)(=O)N3CCCC(C(=O)NCCc4cccs4)C3)ccc21 (stereo not drawn)	·	0.49
CCC1CCCCN1CCCNC(=O)C1CCCN(S(=O)(=O)N2CCOCC2)C1 (stereo not drawn)	·	1.27
O=C(CC1(O)C(=O)Nc2ccccc21)c1ccc(F)cc1 (stereo not drawn)	-0.18	-0.61
Cc1nn(CC(=O)O)c(=O)c2c(C)n(-c3ccccc3)nc12	1.92	3.01
Cc1ccc(-n2nnnc2CNS(C)(=O)=O)cc1	·	1.27
CCc1ccc(-n2nnc(-c3nc(-c4ccc(F)cc4)no3)c2N)cc1	·	1.15
COc1ccccc1NC(=O)c1c(N)sc2c1CCC2	-1.16	-4.76
CN1CCN(C(=O)CSc2nc(-c3ccccc3)cc(C(F)(F)F)n2)CC1	1.04	1.77
O=[N+]([O-])C1=C(Sc2ccc(Cl)cc2)CS(=O)(=O)C1	-1.78	·
COc1ccc(OC)c(Nc2ncnc3nc[nH]c23)c1	-0.47	·
CCC(C)NC(=O)c1c(O)nc2cc(C)ccn2c1=O (stereo not drawn)	-1.96	1.6
Clc1nc(N2CCOCC2)nc(N2CCOCC2)n1	-2.78	0.19

Remaining list, next part:
SMILES	CDC25B CDK2 inh	TAR Tat displ
CCCCc1nn2cc(-c3ccc(Cl)cc3)nc2s1	-1.71	2.84
Cc1ccc(/C(O)=C2\C(=O)C(=O)N(CCN3CCOCC3)C2c2ccc(F)cc2)cc1 (stereo not drawn)	-2.36	0.88
N#CCCN(Cc1ccccc1)C(=O)CSCC(=O)O	1.56	·
Cc1cc(C)cc(NC(=O)CCS(=O)(=O)c2ccc3c(c2)CC(C)N3C(=O)C2CC2)c1 (stereo not drawn)	·	-0.67
CC(=O)N1N=C(c2ccc3c(c2)OCO3)OC1c1cc(-c2ccccc2)nc2ccccc12 (stereo not drawn)	·	0.78
O=C(C1CCN(c2ccnc(-c3ccc(F)cc3)n2)CC1)N1CCC(N2CCCCC2)CC1	·	0.94
CCOCCCN1C(=O)c2ccc(-c3ccco3)n2CC1(C)C(=O)NC1CCCCC1C (stereo not drawn)	·	-0.67
COc1cc(CNCCSc2nnnn2C)cc(Cl)c1OCc1ccc(F)cc1	-1.65	-0.48
O=C(COc1ccc(Cl)cc1)Nc1ccc(OCc2cc(=O)n3ccccc3n2)cc1	·	-2.27
Cc1cc(O)c(C=O)c2c1C(=O)Oc1c(C)c(O)c3c(c1O2)C(O)OC3=O (stereo not drawn)	·	3.98*
COCCNC(=O)C1CCCN(c2nnc(N3CCCC3=O)s2)C1 (stereo not drawn)	-1	0.18
O=C(O)c1ccc(Nc2cc(N3CCOCC3)c3noc4c3c2C(=O)c2ccccc2-4)cc1	11.3*	31.5*
COc1cc(OC)cc(-c2nc(-c3ccc(C)cc3)no2)c1	-1.05	·
Cc1c(NC(=O)C2CC(c3ccc(F)cc3)=NO2)c(=O)n(-c2ccccc2)n1C (stereo not drawn)	-0.13	0.83
CC(C)Cn1cc(NC(=O)NC2=NN(c3ccccc3)CC2)c2ccccc2c1=O	·	2.4
CC(C)(C)c1ccc(OCC(O)CN2CCN(Cc3ccc4c(c3)OCO4)CC2)cc1 (stereo not drawn)	-0.43	·
Cc1ccc(Oc2nc3ccccc3n3c(C)nnc23)cc1	-1.34	·
COc1cc(Cl)c(C)cc1NS(=O)(=O)c1c(C)nc2sccn2c1=O	·	2.35
Cc1cc(C)c(NC(=O)CC(C)S(=O)(=O)c2ccc3c(c2)NC(=O)C(C)S3)c(C)c1 (stereo not drawn)	·	-0.18
Nc1nonc1-n1nnc(C(=O)O)c1-c1cccc2ccccc12	-1.19	2.33
CCCc1cc(=O)oc2cc(OC(=O)/C=C/c3cccs3)ccc12	-1.94	·
O=C1N(Cc2ccccc2Cl)c2ccccc2S(=O)(=O)N1c1cc(F)ccc1F	·	1.61
COC(=O)c1c(NC(=O)Cn2nc(C(F)(F)F)c(Br)c2C)sc2c1CCCC2	·	-0.06
Cc1cc(N2CCN(CCO)CC2)n2nc(-c3ccccc3)nc2n1	-1.23	1.99
C=C1C2CC[C@@]3(C)[C@H](c4ccoc4)OC(=O)C[C@]13O[C@H]1CC(=O)C(C)(C)[C@H](C(O)C(=O)OC)[C@@]21C (stereo partly drawn)	·	1.94

The results go on.
SMILES	CDC25B CDK2 inh	TAR Tat displ
O=C(NC(NC(=S)Nc1ccccc1Br)C(Cl)(Cl)Cl)c1ccccc1 (stereo not drawn)	1.16	·
Cc1nn(S(=O)(=O)c2ccccc2)c(C)c1S(=O)(=O)N1CCC(C)CC1	·	0.59
CCn1c2ccccc2c2nnc(SCc3ccccc3)nc21	-0.66	0.57
CCOC(=O)c1c(C)[nH]c(C)c1S(=O)(=O)Nc1ccc(F)cc1Cl	·	0.99
CCSc1nnc2c(n1)OC(c1ccccc1OC)Nc1ccccc1-2 (stereo not drawn)	-1.14	-0.02
OCCCc1nc2ccccc2n1Cc1ccccc1F	1.08	-0.66
O=c1c(N2CCC(Cc3ccccc3)CC2)csc2ccccc12	·	1.32
Cc1ccc(C)c2c1c1ccccc1n2C	-1.06	·
O=C(c1cc2ccc3cccnc3c2[nH]1)N1CCCCC1	·	1.3
Cn1cc(Br)c(/C=N/Nc2ccc(Cl)cc2Cl)n1	-1.41	·
N#Cc1cn(CC(=O)NCCc2c[nH]c3ccccc23)c2ccccc12	-2.26	-0.7
CC12CCC3C(CCC4CCCCC43C)C1CC/C2=N\O (stereo not drawn)	-1.77	·
O=C(Nc1ccc(F)cc1)N1CCOc2ccccc21	·	1.64
CC1CC(C)CN(c2cc3c(cc2F)c(=O)c(S(=O)(=O)c2cccc(Cl)c2)cn3C)C1 (stereo not drawn)	·	0.6
CCN(CC)CCCNc1nc(=O)[nH]nc1C	0.15	·
Cc1ccc(CNc2sc(S(C)(=O)=O)nc2S(=O)(=O)c2ccc(C)cc2)cc1	-0.93	1.88
CN(C(=O)Cn1ncc2c1-c1ccccc1OC2)c1ccccc1Cl	-1.46	1.12
Cc1cc(S(=O)(=O)N2C(C)CCCC2C)ccc1Cl (stereo not drawn)	-2.19	1.83
CCCS(=O)(=O)N1CCCc2ccc(NS(=O)(=O)CC)cc21	·	-0.14
Cc1cccc2c1NC(=O)C2(O)CC(=O)c1ccccc1Cl (stereo not drawn)	·	0.37
COc1ccc(Br)cc1C1CC(=O)N2CN(Cc3ccco3)CSC2=C1C#N (stereo not drawn)	-0.21	-1.27
Fc1ccc(Nc2ncnc3c(-c4ccccc4)noc23)cc1	-2	0.03
Cc1cn2c(=O)cc(CSc3nc4ccc(NC(=O)C5CCCCC5)cc4s3)nc2s1	·	1.33
Nc1ncnc2oc(-c3ccccc3)c(-c3ccccc3)c12	-0.46	0.72
O=C(OCCN1CCOCC1)c1ccco1	-1.2	-1.1

A section taken from the entries so far, for reference:
SMILES	CDC25B CDK2 inh	TAR Tat displ
Nc1ncnc2oc(-c3ccccc3)c(-c3ccccc3)c12	-0.46	0.72
O=C(OCCN1CCOCC1)c1ccco1	-1.2	-1.1

(further entries)
SMILES	CDC25B CDK2 inh	TAR Tat displ
Cc1cn(C(=O)Nc2ccc(Cl)cc2)nc1-c1cccs1	-1.1	·
Cc1cc(NC(=O)CSc2ccc(-c3cccnc3)nn2)no1	·	1.46
O=C(Nc1ccccc1Br)N1CCN2CCCCC2C1 (stereo not drawn)	·	1.21
CN1C(=O)c2ccccc2Sc2ccc(NC(=O)N3CCC(N4CCCCC4)CC3)cc21	-1.39	-0.57
CC(C)OC(=O)Cn1c2ccc(Cl)cc2c2nc3ccccc3nc21	-1.39	2.63
FC(F)(F)COc1ccc(OCC(F)(F)F)c(-c2csnn2)c1	-1.16	·
Fc1ccc(CN2C3=NCCN3c3ccccc32)cc1	-0.35	-0.45
Clc1ccc(Nc2ncnc3c2cnn3Cc2ccccc2)cc1	0.75	·
Nc1nc2c(-c3ccccc3)c(C(F)(F)F)sc2s1	-0.09	·
CCOC(=O)c1noc2nc(C)nc(NC(C)c3ccccc3)c12 (stereo not drawn)	·	-1.15
Nc1ccccc1SC(CC(=O)c1cccs1)c1cccs1 (stereo not drawn)	-1.85	·
Brc1[nH]nc2ncnc(N3CCCC3)c12	-0.04	-0.57
COCCCNC(=S)NNC(=O)c1csc(C)n1	-2.94	·
N=C1C(c2nc3ccccc3[nH]2)=C(O)CN1c1ccc(F)cc1	-1.5	0.18
Cc1ccc(-c2noc(-c3ccccc3F)n2)cc1	-1.92	·
CCC(C)NC(=O)C(=O)c1c[nH]c2ccccc12 (stereo not drawn)	-0.21	·
CCc1ccc(NC(=O)NC(C)c2c(-n3cccc3)sc(C)c2C)cc1 (stereo not drawn)	-0.16	-0.52
Cc1cc(NC(=O)c2cc(-c3ccc4c(c3)OCCO4)on2)no1	-3.26	0.26
Cc1ccccc1C(=O)OCc1cc(=O)n2nc(C3CCCCC3)sc2n1	·	1.79
CCOc1ccc(-c2ccc(NS(=O)(=O)c3cccc(C)c3)cc2)nn1	·	0.76
NC(=O)COCC(=O)N(c1ccccc1)c1ccccc1	·	-0.8
Cc1cc(=O)nc2c3ccccc3n(C(C)C(=O)NC(C)c3ccccc3)n12 (stereo not drawn)	-1	0.37
Cc1ccc(Nc2nn3c(=O)c4cc5c(cc4nc3s2)OCO5)cc1Cl	-1.69	-0.12
O=C(Nc1cccs1)NC1CCCc2ccccc21 (stereo not drawn)	-1.49	0.52
Cc1ccc(N2C(=O)CC(Sc3nnc(-c4ccccc4O)o3)C2=O)cc1 (stereo not drawn)	-0.65	-0.62

Given comma-delimited: four of the compounds above
smiles,CDC25B CDK2 inh,TAR Tat displ
CCC(C)NC(=O)C(=O)c1c[nH]c2ccccc12 (stereo not drawn),-0.21,·
CCc1ccc(NC(=O)NC(C)c2c(-n3cccc3)sc(C)c2C)cc1 (stereo not drawn),-0.16,-0.52
Cc1cc(NC(=O)c2cc(-c3ccc4c(c3)OCCO4)on2)no1,-3.26,0.26
Cc1ccccc1C(=O)OCc1cc(=O)n2nc(C3CCCCC3)sc2n1,·,1.79

Next section.
SMILES	CDC25B CDK2 inh	TAR Tat displ
CCN(C(=O)Cn1cc(C(=O)C2CC2)c2ccccc21)c1ccccc1	0.52	2.43
COc1ccc(S(=O)(=O)NCC(c2ccco2)N2CCN(c3ccccc3)CC2)cc1OC (stereo not drawn)	·	0.4
O=C(CSc1nc(-c2ccccc2)[nH]c1S(=O)(=O)c1ccccc1)Nc1nccs1	0.46	1.04
Cc1ccc(O)c(-c2n[nH]c3c2C(c2ccc(F)cc2)N(CCCO)C3=O)c1 (stereo not drawn)	0.18	-0.95
O=C(c1ccc(CNc2c(NC3CCCCC3)c(=O)c2=O)cc1)N1CCc2ccccc21	-0.24	0.95
COC(=O)CN(C#N)c1nc(N(C)C)nc(N(C)C)n1	-2.85	-0.25
COC(=O)c1ccc(C2Nc3ccc4ncccc4c3C3=C2C(=O)CC(C)(C)C3)cc1 (stereo not drawn)	-0.47	1.85
CC1CCC(NC(=O)C2CCN(c3nnc(-n4cccc4)s3)CC2)CC1 (stereo not drawn)	-1.07	1.96
C=CCNC(=O)CSc1nc(-c2ccco2)cc(C(F)(F)F)n1	-0.91	4.84
CCOC(=O)N1C(=C(C(F)(F)F)C(F)(F)F)C(C(F)(F)F)(C(F)(F)F)C1(F)F	-1.3	·
Cn1nc(C(=O)Nc2ccccc2)c2c1-c1ccccc1S(=O)(=O)C2	-0.93	0.68
Cc1cc(C)c2nc(Nc3nc4ccccc4c(=O)[nH]3)nc(C)c2c1	2.76	-0.55
C=CCOC(=O)c1sc(NC(=O)c2csnn2)nc1C	-0.32	-1.4
O=C(CCN1C(=O)c2cccnc2C1=O)NCc1ccco1	0.58	·
CCOc1cc(C2C(C(=O)OC(C)C)=C(C)NC3=C2C(=O)CC(C)(C)C3)cc(Br)c1O (stereo not drawn)	-2.36	1.52
O=C(c1cccn2c(=O)c3sccc3nc12)N1CCC2(CC1)OCCO2	-0.61	·
